HIV Env fusion – blocks HIV Env-driven cell-cell fusion; HeLa-JRFL Env/CEM21 cell fusion, luciferase; inhibition, % at 12.3 µM; 360,000 compounds, 1.1% hits;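 active = mean replicate inhibition score of at least 50 and every replicate individually at or above 50; inconclusive = only one of the two criteria met; inactive = mean below 50 and not all replicates reaching 50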;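 also: 0% = plate neutral controls and 100% = maraviroc near 300 nM; one replicate is shown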
* = called active by the depositor; ? = inconclusive; [ ] = remark or other dose.

SMILES	HIV Env fusion
Cc1ccc(S(=O)(=O)N(C)C[C@@H]2Oc3ccc(NS(=O)(=O)c4cn(C)cn4)cc3C(=O)N([C@@H](C)CO)C[C@H]2C)cc1	-18[16.7 µM]
C[C@@H]1CCCCO[C@@H](CN(C)CC2CC2)[C@H](C)CN([C@H](C)CO)C(=O)c2cc(NC(=O)Nc3ccccc3)ccc2O1	11[16.7 µM]
C[C@@H]1CN([C@@H](C)CO)C(=O)c2cc(-c3cccc(F)c3)cnc2O[C@@H]1CN(C)C(=O)C1CC1	-9[16.7 µM]
O=C1C=C(c2cccc3c2Oc2ccccc2S3)C[C@@H](c2ccc3c(c2)OCO3)C1	?
CO[C@@H]1CC[C@H]2CCN(C)C(=O)[C@H](C)N(C)C(=O)c3cc(C#N)ccc3OC[C@H]1O2	31[16.7 µM]
CCCN(C)C[C@H]1OCCCC[C@@H](C)Oc2ccc(NS(=O)(=O)c3ccc(C)cc3)cc2C(=O)N([C@H](C)CO)C[C@@H]1C	-2[16.7 µM]
CO[C@H]1CN(C)C(=O)c2ccc(NC(=O)C3CCOCC3)cc2OC[C@H](C)N(C)C[C@H]1C	-6[16.7 µM]
Cc1ccc2nc3n(c(=O)c2c1)-c1ccccc1C(=O)NC3CC(C)C (configuration not stated)	-10
CC(C)CC#Cc1ccc2c(c1)O[C@@H](CN(C)C(=O)C1CC1)[C@@H](C)CN([C@H](C)CO)S2(=O)=O	30[16.7 µM]
O=C(Nc1ccc2c(c1)[C@@H]1C[C@@H](CC(=O)N3CCc4ccccc4C3)O[C@H](CO)[C@@H]1O2)c1cccnc1	-14[16.7 µM]
COc1ccc(NC(=O)Nc2ccc3c(c2)[C@@H]2C[C@@H](CC(=O)NCCc4ccccc4)O[C@@H](CO)[C@@H]2O3)cc1	9[16.7 µM]
C[C@H]1CN([C@@H](C)CO)C(=O)c2cc(NC(=O)Nc3ccc(F)cc3)ccc2O[C@H]1CN(C)C(=O)Nc1ccc2c(c1)OCO2	-15[16.7 µM]
C[C@H](CO)N1C[C@H](C)[C@@H](CN(C)Cc2ccncc2)OCCCC[C@H](C)Oc2ccc(NC(=O)Nc3ccccc3)cc2C1=O	-9[16.7 µM]
COc1ccc2c3c([nH]c2c1)[C@H](CO)N(C(=O)Nc1ccc(F)cc1)CC31CN(S(=O)(=O)c2cccc(C)c2)C1	-49[16.7 µM]
COC(=O)C1=C(C)N(Cc2ccc(Cl)cc2)C(=S)NC1c1ccc(F)cc1 (configuration not stated)	24
COc1cccc(CNC(=O)[C@H]2CCCN2C(=O)[C@H]2CCCN2C(=O)c2ccccc2C(F)(F)F)c1	-7
C[C@@H]1CN([C@@H](C)CO)C(=O)c2cc(NC(=O)Cc3ccccc3)ccc2O[C@@H]1CN(C)Cc1ccc2c(c1)OCO2	-12[16.7 µM]
CCCN1C[C@H](C)[C@H](OC)CN(C)C(=O)c2cc(NC(=O)c3cnccn3)ccc2OC[C@H]1C	-3[16.7 µM]
COc1ccc(NC(=O)N(C)C[C@H]2Oc3ccc(NS(=O)(=O)c4ccc(C)cc4)cc3C(=O)N([C@H](C)CO)C[C@H]2C)cc1	0[16.7 µM]
O=C(NCC[C@@H]1CC[C@@H](NC(=O)c2cccnc2)[C@@H](CO)O1)Nc1ccc(C(F)(F)F)cc1	15[16.7 µM]
Cc1ccc(S(=O)(=O)Nc2ccc3c(c2)C(=O)N([C@@H](C)CO)C[C@@H](C)[C@@H](CN(C)S(=O)(=O)c2ccc(F)cc2)O3)cc1	-11[16.7 µM]
O=C(C[C@H]1CC[C@@H]2[C@H](COC[C@@H](O)CN2C(=O)Nc2ccc(Cl)cc2)O1)NCC1CCCCC1	-6[16.7 µM]
Cc1noc(C)c1NC(=O)Nc1ccc2c(c1)C(=O)N([C@@H](C)CO)C[C@H](C)[C@@H](CN(C)CC1CCCCC1)O2	-5[16.7 µM]
COc1ccc(NC(=O)N(C)C[C@@H]2Oc3ccc(NS(=O)(=O)c4ccc(C)cc4)cc3CC(=O)N([C@@H](C)CO)C[C@@H]2C)cc1	-7[16.7 µM]
CC(C)NC(=O)Nc1ccc2c(c1)C(=O)N([C@H](C)CO)C[C@H](C)[C@@H](CN(C)C)OCCCC[C@H](C)O2	-20[16.7 µM]
CO[C@H]1CC[C@H]2CCN(C)C(=O)[C@H](C)CN(C)C(=O)c3cccc(C#N)c3OC[C@H]1O2	26[16.7 µM]
CO[C@H]1CN(C)C(=O)c2cc(NC(=O)c3ccccc3)ccc2OC[C@@H](C)N(CC2CC2)C[C@@H]1C	-15[16.7 µM]
CCCCNc1ccc2c(c1)OC[C@H](CC(C)C)NS2(=O)=O	19
CC(=O)N(C)C[C@H]1OCc2ccccc2-c2ccccc2C(=O)N([C@@H](C)CO)C[C@H]1C	-19[16.7 µM]
OC(c1ccccc1)(c1ccccc1)C1CCN(CCCOc2ccc(-c3ccsc3)cc2)CC1	36
O=C(C[C@@H]1C[C@@H]2c3cc(NC(=O)Cc4ccncc4)ccc3O[C@@H]2[C@H](CO)O1)NCc1cccc(F)c1	-8[16.7 µM]
C[C@H]1CN([C@@H](C)CO)C(=O)Cc2cc(NC(=O)Nc3ccc(C(F)(F)F)cc3)ccc2O[C@@H]1CN(C)S(=O)(=O)c1ccc(F)cc1	9[16.7 µM]
C[C@@H]1CN([C@H](C)CO)C(=O)c2cc(C#CCc3ccccc3)cnc2O[C@H]1CN(C)Cc1ccc(C(=O)O)cc1	11[16.7 µM]
C[C@H]1CN([C@@H](C)CO)C(=O)c2ccccc2-c2ccccc2CO[C@H]1CN(C)Cc1cccc2c1OCCCO2	-32[16.7 µM]
Nc1[nH]c(C(=O)c2ccc(Br)cc2)c(-c2cccc3ccccc23)c1C(=O)NCCc1c[nH]c2ccccc12	-31
C[C@@H]1CN([C@@H](C)CO)C(=O)c2c(c3ccccc3n2C)-c2ccccc2CO[C@H]1CN(C)S(=O)(=O)c1ccccc1F	24[16.7 µM]
COc1cccc(CN(C)C[C@H]2OCc3ccccc3-c3ccccc3C(=O)N([C@@H](C)CO)C[C@H]2C)c1	-1[16.7 µM]
C[C@@H]1CCCCO[C@H](CN(C)Cc2ccc3c(c2)OCO3)[C@H](C)CN([C@@H](C)CO)C(=O)c2cc(NS(C)(=O)=O)ccc2O1	-4[16.7 µM]
Cc1noc(C)c1NC(=O)NCC[C@H]1CC[C@@H](NC(=O)c2ccc(F)cc2)[C@H](CO)O1	-2[16.7 µM]
Cn1cnc(CCNC(=O)C[C@H]2CC[C@H]3[C@@H](COC[C@@H](O)CN3C(=O)Nc3ccc(C(F)(F)F)cc3)O2)c1	1[16.7 µM]

Molecules from the list above that have an aryl methoxy group, in the order listed:
SMILES	HIV Env fusion
COc1ccc(NC(=O)Nc2ccc3c(c2)[C@@H]2C[C@@H](CC(=O)NCCc4ccccc4)O[C@@H](CO)[C@@H]2O3)cc1	9[16.7 µM]
COc1ccc2c3c([nH]c2c1)[C@H](CO)N(C(=O)Nc1ccc(F)cc1)CC31CN(S(=O)(=O)c2cccc(C)c2)C1	-49[16.7 µM]
COc1cccc(CNC(=O)[C@H]2CCCN2C(=O)[C@H]2CCCN2C(=O)c2ccccc2C(F)(F)F)c1	-7
COc1ccc(NC(=O)N(C)C[C@H]2Oc3ccc(NS(=O)(=O)c4ccc(C)cc4)cc3C(=O)N([C@H](C)CO)C[C@H]2C)cc1	0[16.7 µM]
COc1ccc(NC(=O)N(C)C[C@@H]2Oc3ccc(NS(=O)(=O)c4ccc(C)cc4)cc3CC(=O)N([C@@H](C)CO)C[C@@H]2C)cc1	-7[16.7 µM]
COc1cccc(CN(C)C[C@H]2OCc3ccccc3-c3ccccc3C(=O)N([C@@H](C)CO)C[C@H]2C)c1	-1[16.7 µM]

Next part.
SMILES	HIV Env fusion
O=C(NCCc1ccncc1)[C@H]1[C@H](CO)[C@H]2Cn3c(ccc(-c4ccccc4)c3=O)[C@H]2N1C(=O)C1CC1	20[16.7 µM]
COCc1cc(N2CCN(C(=O)OC(C)(C)C)C[C@@H]2C)ccc1N1CCN(Cc2ccccc2)[C@@H](C)C1	-23
COc1ccccc1CCn1cnc(-c2ccccc2F)c1CC(C)C	19
CO[C@H]1CN(C)C(=O)c2cc(NC(=O)C3CC3)ccc2OC[C@H](C)N(C(=O)Cc2ccccn2)C[C@H]1C	-6[16.7 µM]
CCC(=O)N1C[C@H](C)[C@@H](OC)CN(C)C(=O)c2ccc(NC(=O)C3CCOCC3)cc2OC[C@H]1C	-3[16.7 µM]
CN1C(=O)c2cc(NC(=O)C3CCCCC3)ccc2OC[C@H]2O[C@@H](CC(=O)NCc3ccccc3F)CC[C@H]21	7[16.7 µM]
O=C(C[C@@H]1CC[C@@H]2[C@H](COC[C@@H](O)CN2C(=O)Nc2ccc(F)cc2)O1)NCCCN1CCOCC1	0[16.7 µM]
CO[C@H]1CC[C@H]2CCOc3ccc(C#N)cc3C(=O)N(C)C[C@H](c3ccccc3)CC(=O)N(C)C[C@H]1O2	-131[16.7 µM]
CN1CCN(C(=O)C[C@@H]2CC[C@@H]3[C@H](COC[C@@H](O)CN3C(=O)Cc3ccccc3)O2)CC1	-3[16.7 µM]
C[C@@H]1CN([C@H](C)CO)C(=O)c2cc(NC(=O)Cc3ccccc3)ccc2O[C@@H]1CN(C)Cc1ccc(C(=O)O)cc1	7[16.7 µM]
O=C(C1CCC1)N1CC[C@@H]2[C@H]1c1cc(C#Cc3ccc(F)cc3)ccc1N[C@@H]2CO	15[16.7 µM]
C[C@H]1CN([C@@H](C)CO)C(=O)c2cc(-c3ccc(C#N)cc3)cnc2O[C@H]1CN(C)Cc1cncnc1	-16[16.7 µM]
O=C(C[C@H]1C[C@H]2c3cc(NS(=O)(=O)c4ccc(F)cc4)ccc3O[C@H]2[C@H](CO)O1)NCCN1CCCCC1	-4[16.7 µM]
CCN1C(=O)N[C@H]2C[C@@H](c3ccccc3)[C@@H](C)[C@@H](C(=O)N3CCCC3)C[C@H]21	3
COc1cccc(CNC(=O)C[C@H]2CC[C@H]3[C@H](COc4ccc(NC(=O)c5cccs5)cc4C(=O)N3C)O2)c1	-16[16.7 µM]
N#C[C@H]1[C@@H](c2ccccc2-c2ccccc2)[C@H](CO)N1C(=O)NC1CCCCC1	-26[16.7 µM]
C[C@@H]1CN([C@H](C)CO)C(=O)c2ccccc2-c2ccccc2CO[C@@H]1CN(C)C(=O)Nc1ccccc1C(F)(F)F	-6[16.7 µM]
O=C(/C=C(\Nc1ccc(F)cc1)c1ccccc1)c1ccccc1	-84
Cc1ccc(CN(C)C[C@H]2OCc3cn(nn3)CCCC(=O)N([C@@H](C)CO)C[C@H]2C)cc1	19[16.7 µM]
C[C@@H]1CN([C@H](C)CO)C(=O)c2cccc(NC(=O)c3cnccn3)c2O[C@@H]1CN(C)S(=O)(=O)c1ccccc1	8[16.7 µM]

Given bar-delimited: entries from further up
compound | HIV Env fusion
COc1cccc(CNC(=O)C[C@H]2CC[C@H]3[C@H](COc4ccc(NC(=O)c5cccs5)cc4C(=O)N3C)O2)c1 | -16[16.7 µM]
CCN1C(=O)N[C@H]2C[C@@H](c3ccccc3)[C@@H](C)[C@@H](C(=O)N3CCCC3)C[C@H]21 | 3

Carrying on:
SMILES	HIV Env fusion
CCNC(=O)[C@H]1[C@H](CO)[C@H]2Cn3c(ccc(C4=CCCC4)c3=O)[C@H]2N1C(=O)C1CC1	8[16.7 µM]
CCCNC(=O)Nc1ccc2c(c1)C(=O)N(C)C[C@H](OC)[C@H](C)CN(Cc1ccncc1)[C@@H](C)CO2	-1[16.7 µM]
O=C(NC1CCCC1)[C@@H]1CCCN1C(=O)[C@@H](NC(=O)N1CCOCC1)C1CCCCC1	4
O=C(NCCc1ccccc1Cl)[C@@H]1CCCN1C(=O)[C@H](Cc1cccnc1)NC(=O)N1CCOCC1	8
COCCCNC(=O)C[C@H]1C[C@@]2(C(=O)OC)C(=C[C@H](C3CCCC3)O[C@@H]2C)N(Cc2ccccc2)C1=O	-32
C/C=C/c1ccc([C@@H]2[C@@H](CO)N(c3nc(-c4ccccc4)cs3)[C@H]2C#N)cc1	15[16.7 µM]
CS(=O)(=O)Nc1ccc2c(c1)[C@H]1C[C@H](CC(=O)NCc3cc(F)ccc3F)O[C@H](CO)[C@H]1O2	-7[16.7 µM]
CO[C@@H]1CN(C)C(=O)c2cc(NC(=O)c3cccc(F)c3)ccc2OC[C@H](C)N(C)C[C@H]1C	-10[16.7 µM]
O=C(C[C@@H]1C[C@@H]2c3cc(NC(=O)CC4CC4)ccc3O[C@@H]2[C@H](CO)O1)NCc1ccc(Cl)cc1	9[16.7 µM]

Sorted by count of non-hydrogen atoms (smallest number first): three of the compounds above.
SMILES	HIV Env fusion
C/C=C/c1ccc([C@@H]2[C@@H](CO)N(c3nc(-c4ccccc4)cs3)[C@H]2C#N)cc1	15[16.7 µM]
CO[C@@H]1CN(C)C(=O)c2cc(NC(=O)c3cccc(F)c3)ccc2OC[C@H](C)N(C)C[C@H]1C	-10[16.7 µM]
O=C(NCCc1ccccc1Cl)[C@@H]1CCCN1C(=O)[C@H](Cc1cccnc1)NC(=O)N1CCOCC1	8

Screening data (PubChem)

This is a subset; count on the stated rates, not on these rows.
